UUG fidelity – modulators of yeast start codon fidelity, primary screen, whole organism, S. cerevisiae, single point, plate reader; activity score, % at 18.7 µM; actives 0.13% (n = 350,000); S. cerevisiae UUG-firefly luciferase reporter, luminescence/redox ratio;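 active means replicate mean at a twofold rise or more, about +100% in these data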;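 further: firefly luciferase made from a UUG start codon reports start codon fidelity; reporter light over untreated wells divided by growth signal over untreated wells; some hits fall short of that in this replicate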
HIV Env fusion – inhibitors of HIV-1 Env-driven cell-cell fusion, primary screen, HeLa-JRFL effector, CEM21 target cells, luciferase; inhibition, % at 12.3 µM; actives 1.1% (n = 360,000);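 active means mean replicate inhibition score of at least 50 and every replicate individually at or above 50; inconclusive means only one of the two criteria met; inactive means mean below 50 and not all replicates reaching 50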;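 further: 0% = plate neutral controls and 100% = maraviroc near 300 nM; one replicate is shown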
* marks the source's active call; other numbers are inactive results; ? = inconclusive; [ ] = remark or other dose. These rows are one share of the data; rates above refer to the full screens.

Structure,UUG fidelity,HIV Env fusion
O=S(=O)(N[C@@H]1CC[C@@H](CCNS(=O)(=O)c2ccccc2Cl)O[C@H]1CO)c1ccccc1,7.7,11.3[16.7 µM]
C[C@@H]1CN([C@@H](C)CO)C(=O)c2cc(C#CC3CCCCC3)cnc2O[C@H]1CN(C)Cc1cncnc1,2.8,0.1[16.7 µM]
COCC(=O)N(C)C[C@@H]1Oc2ncc(-c3ccc(C)cc3)cc2C(=O)N([C@@H](C)CO)C[C@@H]1C,0.1,6.7[16.7 µM]
C[C@@H]1CN([C@H](C)CO)C(=O)c2cc(NS(=O)(=O)c3ccc(F)cc3)ccc2O[C@H]1CN(C)S(=O)(=O)c1ccc(Cl)cc1,7.8,-28.4[16.7 µM]
COc1ccc(NC(=O)N(C)C[C@H]2Oc3ccc(NC(=O)Nc4ccc5c(c4)OCO5)cc3CC(=O)N([C@H](C)CO)C[C@@H]2C)cc1,7.8,2.1[16.7 µM]
C[C@H]1CN([C@@H](C)CO)C(=O)Cc2cc(NC(=O)Nc3ccc4c(c3)OCO4)ccc2O[C@@H]1CN(C)Cc1ccc(C(=O)O)cc1,-7.4,12.9[16.7 µM]
C[C@@H]1CN([C@H](C)CO)C(=O)c2cc(NC(=O)C3CC3)ccc2O[C@H]1CN(C)C(=O)Nc1cccc2ccccc12,8.9,-8.0[16.7 µM]
CC(C)NC(=O)N(C)C[C@H]1Oc2cc(-c3ccncc3)ccc2S(=O)(=O)N([C@H](C)CO)C[C@@H]1C,-1.5,-17.6[16.7 µM]
O=C(Cc1ccncc1)Nc1ccc2c(c1)[C@@H]1C[C@H](CC(=O)NC3CCCC3)O[C@@H](CO)[C@@H]1O2,-7.1,1.4[16.7 µM]
O=C(C[C@H]1CC[C@@H]2[C@H](COC[C@H](O)CN2C(=O)c2cnccn2)O1)N1CCN(c2ccccc2)CC1,1.1,-20.9[16.7 µM]
Cc1ccc(S(=O)(=O)N(C)C[C@@H]2Oc3ccc(NC(=O)Nc4ccc(C(F)(F)F)cc4)cc3CC(=O)N([C@@H](C)CO)C[C@@H]2C)cc1,1.1,31.1[16.7 µM]
CC(=O)N(C)C[C@@H]1Oc2ncc(C#Cc3ccccc3F)cc2C(=O)N([C@@H](C)CO)C[C@@H]1C,-2.7,18.0[16.7 µM]
C[C@@H]1CN([C@H](C)CO)C(=O)c2cc(NS(=O)(=O)c3cn(C)cn3)ccc2O[C@@H](C)CCCCO[C@@H]1CN(C)S(=O)(=O)c1ccc(F)cc1,16.2,-4.2[16.7 µM]
CNC[C@@H]1Oc2cc(C#Cc3ccccc3OC)ccc2S(=O)(=O)N([C@H](C)CO)C[C@H]1C,1.0,-31.9[16.7 µM]
C[C@H](CO)N1C[C@H](C)[C@H](CN(C)C(=O)Cc2cccnc2)Oc2ncc(-c3ccccc3)cc2C1=O,4.8,4.3[16.7 µM]
CC(C)C#Cc1ccc2c(c1)O[C@@H](CN(C)Cc1ccccc1)[C@H](C)CN([C@@H](C)CO)S2(=O)=O,9.0,-4.3[16.7 µM]
COc1cccc(S(=O)(=O)N(C)C[C@H]2Oc3cc(C4=CCCC4)ccc3S(=O)(=O)N([C@H](C)CO)C[C@@H]2C)c1,-2.9,63.1*[16.7 µM]
Cc1noc(C)c1NC(=O)N(C)C[C@@H]1Oc2ccc(NC(=O)CCN3CCOCC3)cc2C(=O)N([C@H](C)CO)C[C@@H]1C,-5.5,-9.6[16.7 µM]
COc1ccc(S(=O)(=O)Nc2ccc3c(c2)C(=O)N([C@H](C)CO)C[C@@H](C)[C@@H](CN(C)C(=O)Nc2ccc4c(c2)OCO4)O3)cc1,4.6,32.6[16.7 µM]
Cc1ccc(S(=O)(=O)N(C)C[C@@H]2OCCCC[C@H](C)Oc3ccc(NC(=O)Cc4ccccc4)cc3C(=O)N([C@@H](C)CO)C[C@H]2C)cc1,-4.3,-2.6[16.7 µM]
CN(C)CC(=O)N1[C@H](C#N)[C@H](c2ccc(-c3ccccc3F)cc2)[C@@H]1CO,-4.9,0.0[16.7 µM]
C[C@@H]1CN([C@@H](C)CO)C(=O)c2cc(NC(=O)Cc3ccccc3)ccc2O[C@@H]1CN(C)S(C)(=O)=O,-4.7,-8.3[16.7 µM]
O=C(N[C@H]1CC[C@H](CCNC(=O)C2CCOCC2)O[C@@H]1CO)c1ccccn1,-18.1,-2.6[16.7 µM]
C[C@@H]1CN([C@H](C)CO)C(=O)c2cc(NS(=O)(=O)c3cn(C)cn3)ccc2O[C@@H]1CN(C)CC1CCCCC1,2.6,10.1[16.7 µM]
CN1C(=O)c2cc(NC(=O)C3CCCC3)ccc2OC[C@@H]2O[C@@H](CC(=O)Nc3ccccc3)CC[C@@H]21,11.9,2.6[16.7 µM]
Cc1noc(C)c1NC(=O)Nc1ccc2c(c1)C(=O)N([C@@H](C)CO)C[C@@H](C)[C@H](CN(C)Cc1ccncc1)OCCCC[C@@H](C)O2,-8.6,7.5[16.7 µM]
COc1ccc(S(=O)(=O)Nc2cccc3c2O[C@@H](CN(C)Cc2ccccc2)[C@@H](C)CN([C@H](C)CO)C3=O)cc1,-2.3,-8.2[16.7 µM]
COC(=O)C[C@@H]1C[C@H]2c3cc(NC(=O)Nc4ccc(F)cc4)ccc3O[C@H]2[C@H](CO)O1,-10.3,13.9[16.7 µM]
C[C@@H]1CN([C@@H](C)CO)C(=O)Cc2cc(NS(=O)(=O)c3ccccc3)ccc2O[C@@H]1CN(C)S(=O)(=O)c1cn(C)cn1,3.8,17.0[16.7 µM]
C[C@@H]1CN([C@H](C)CO)C(=O)c2cc(NC(=O)Nc3cccc4ccccc34)ccc2O[C@@H](C)CCCCO[C@H]1CN(C)S(=O)(=O)c1cn(C)cn1,-0.8,6.3[16.7 µM]
COc1ccc(NC(=O)N(C)C[C@@H]2Oc3ccc(NC(=O)Nc4ccc(F)cc4)cc3CC(=O)N([C@@H](C)CO)C[C@@H]2C)cc1,7.0,-9.2[16.7 µM]
COc1ccc(NC(=O)Nc2ccc3c(c2)CC(=O)N([C@@H](C)CO)C[C@H](C)[C@@H](CN(C)C(=O)Nc2ccc(C(F)(F)F)cc2)O3)cc1,35.0,-36.0[16.7 µM]
COc1ccc(NC(=O)N[C@@H]2CC[C@@H](CCNC(=O)c3cc(Cl)cc(Cl)c3)O[C@H]2CO)cc1,-0.8,?
Cc1ccc(S(=O)(=O)Nc2ccc3c(c2)C(=O)N([C@H](C)CO)C[C@@H](C)[C@@H](CN(C)CC2CCCCC2)O3)cc1,8.1,-6.8[16.7 µM]
Cc1ccc(S(=O)(=O)N(C)C[C@@H]2OCCCC[C@@H](C)Oc3ccc(NC(=O)c4ccccc4)cc3C(=O)N([C@@H](C)CO)C[C@@H]2C)cc1,-2.9,3.0[16.7 µM]
O=C(C[C@H]1C[C@H]2c3cc(NC(=O)CC4CC4)ccc3O[C@H]2[C@H](CO)O1)NCC(F)(F)F,-6.0,1.8[16.7 µM]
CC(C)NC(=O)N(C)C[C@H]1Oc2ncc(C#Cc3ccccc3F)cc2C(=O)N([C@H](C)CO)C[C@@H]1C,-10.0,7.8[16.7 µM]
C[C@@H]1CN([C@@H](C)CO)C(=O)c2cc(NS(=O)(=O)c3cn(C)cn3)ccc2O[C@@H](C)CCCCO[C@H]1CN(C)C(=O)CCC(F)(F)F,-11.0,4.7[16.7 µM]
Cc1ccc(S(=O)(=O)Nc2ccc3c(c2)C(=O)N([C@H](C)CO)C[C@H](C)[C@@H](CN(C)CC2CC2)OCCCC[C@@H](C)O3)cc1,5.5,-4.8[16.7 µM]
CC(C)(C)[C@@H]1C=C(C(=O)N2CCCCCCC2)O[C@H](OCCCCO)C1,9.0,10.9[16.7 µM]
C[C@@H]1CN([C@@H](C)CO)C(=O)Cc2cc(NC(=O)Nc3ccc4c(c3)OCO4)ccc2O[C@@H]1CN(C)C(=O)Nc1ccc2c(c1)OCO2,13.7,-15.9[16.7 µM]
COc1ccc(S(=O)(=O)Nc2ccc3c(c2)C(=O)N([C@@H](C)CO)C[C@@H](C)[C@@H](CN(C)S(=O)(=O)c2ccc(OC)cc2)O3)cc1,17.4,-24.3[16.7 µM]
O=C(C[C@@H]1C[C@H]2c3cc(NC(=O)NC4CCCC4)ccc3O[C@H]2[C@@H](CO)O1)NCc1ccc2c(c1)OCO2,6.3,-8.8[16.7 µM]
Cc1noc(C)c1S(=O)(=O)N(C)C[C@@H]1OCCCC[C@H](C)Oc2ccc(N(C)C)cc2C(=O)N([C@H](C)CO)C[C@@H]1C,15.2,-31.9[16.7 µM]
CCCN(C)C[C@H]1Oc2cc(C#Cc3ccccc3)ccc2S(=O)(=O)N([C@H](C)CO)C[C@@H]1C,5.4,42.7[16.7 µM]
Cc1ccccc1S(=O)(=O)N1[C@@H](C#N)[C@@H](c2ccc(C#CC3CCCCC3)cc2)[C@@H]1CO,-16.5,-27.5[16.7 µM]
C[C@H]1CN([C@@H](C)CO)S(=O)(=O)c2ccc(C#Cc3ccccc3)cc2O[C@H]1CN(C)C(=O)Nc1ccc2c(c1)OCO2,-4.3,-21.6[16.7 µM]
C[C@@H]1CN([C@H](C)CO)C(=O)Cc2cc(NC(=O)CCCCCC(=O)Nc3ccccc3N)ccc2O[C@@H]1CN(C)CC1CCCCC1,28.4,2.2[16.7 µM]
C[C@@H]1CN([C@@H](C)CO)C(=O)c2cc(-c3ccc(C(=O)N(C)C)cc3)cnc2O[C@@H]1CN(C)C(=O)c1cccnc1,-4.8,-8.5[16.7 µM]
COc1ccc(NC(=O)N(C)C[C@@H]2OCCCC[C@H](C)Oc3ccc(NC(=O)NC(C)C)cc3C(=O)N([C@H](C)CO)C[C@@H]2C)cc1,12.1,3.1[16.7 µM]

(further entries)
Structure,UUG fidelity,HIV Env fusion
CC(C)CC#Cc1ccc2c(c1)O[C@H](CN(C)C)[C@H](C)CN([C@H](C)CO)S2(=O)=O,3.1,-14.1[16.7 µM]
Cc1noc(C)c1NC(=O)N(C)C[C@H]1Oc2ccc(NS(C)(=O)=O)cc2CC(=O)N([C@@H](C)CO)C[C@@H]1C,4.2,43.9[16.7 µM]
Cc1ccc(S(=O)(=O)N(C)C[C@@H]2Oc3ccc(NC(=O)Nc4ccc5c(c4)OCO5)cc3CC(=O)N([C@@H](C)CO)C[C@@H]2C)cc1,-8.4,-137.4[16.7 µM]
Cc1ccc(S(=O)(=O)Nc2ccc3c(c2)C(=O)N([C@@H](C)CO)C[C@@H](C)[C@@H](CN(C)Cc2ccc(C(=O)O)cc2)OCCCC[C@@H](C)O3)cc1,1.6,-3.0[16.7 µM]
C[C@@H]1CCCCO[C@@H](CN(C)C(=O)NC2CCCCC2)[C@H](C)CN([C@@H](C)CO)C(=O)c2cc(NS(=O)(=O)c3ccccc3)ccc2O1,2.5,-14.1[16.7 µM]

Entries from the list above that contain two or more sulfur atoms, in the order listed:
Structure,UUG fidelity,HIV Env fusion
O=S(=O)(N[C@@H]1CC[C@@H](CCNS(=O)(=O)c2ccccc2Cl)O[C@H]1CO)c1ccccc1,7.7,11.3[16.7 µM]
C[C@@H]1CN([C@H](C)CO)C(=O)c2cc(NS(=O)(=O)c3ccc(F)cc3)ccc2O[C@H]1CN(C)S(=O)(=O)c1ccc(Cl)cc1,7.8,-28.4[16.7 µM]
C[C@@H]1CN([C@H](C)CO)C(=O)c2cc(NS(=O)(=O)c3cn(C)cn3)ccc2O[C@@H](C)CCCCO[C@@H]1CN(C)S(=O)(=O)c1ccc(F)cc1,16.2,-4.2[16.7 µM]
COc1cccc(S(=O)(=O)N(C)C[C@H]2Oc3cc(C4=CCCC4)ccc3S(=O)(=O)N([C@H](C)CO)C[C@@H]2C)c1,-2.9,63.1*[16.7 µM]
C[C@@H]1CN([C@@H](C)CO)C(=O)Cc2cc(NS(=O)(=O)c3ccccc3)ccc2O[C@@H]1CN(C)S(=O)(=O)c1cn(C)cn1,3.8,17.0[16.7 µM]
COc1ccc(S(=O)(=O)Nc2ccc3c(c2)C(=O)N([C@@H](C)CO)C[C@@H](C)[C@@H](CN(C)S(=O)(=O)c2ccc(OC)cc2)O3)cc1,17.4,-24.3[16.7 µM]

Pulled one by one from the list above:
Structure,UUG fidelity,HIV Env fusion
Cc1ccc(S(=O)(=O)Nc2ccc3c(c2)C(=O)N([C@@H](C)CO)C[C@@H](C)[C@@H](CN(C)Cc2ccc(C(=O)O)cc2)OCCCC[C@@H](C)O3)cc1,1.6,-3.0[16.7 µM]
Cc1noc(C)c1NC(=O)N(C)C[C@H]1Oc2ccc(NS(C)(=O)=O)cc2CC(=O)N([C@@H](C)CO)C[C@@H]1C,4.2,43.9[16.7 µM]
